# Yeast UUG start: modulators of yeast start codon fidelity, primary screen, whole organism, S. cerevisiae, single point, plate reader; actives 0.13% (n = 350,000); AID 602363, 2012; S. cerevisiae UUG-firefly luciferase reporter, luminescence/redox ratio; activity score, % at 18.7 µM;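 active means replicate mean at a twofold rise or more, about +100% in these data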;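 further: firefly luciferase made from a UUG start codon reports start codon fidelity; reporter light over untreated wells divided by growth signal over untreated wells; some hits fall short of that in this replicate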
# CSC inhib: cancer stem cell viability inhibitors, primary screen, luminescence | inhibition, % at 7.5 µM | actives 1.1% (n = 300,000) | cancer stem cell-like cells viability;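 active means mean at 75% or more and at least half the replicates too; tested in HMLE shEcad cells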;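 further: 0% = median of negative and 100% = median of positive control wells; the first replicate is given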
# PABP FP inh: PABP poly(A) RNA binding inhibitors, primary screen, biochemical, fluorescence polarization, uHTS; Polyadenylate-binding protein 1 (Homo sapiens), P11940; inhibition, % at 35 µM; actives 1% (n = 290,000); AID 2014, 2009;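 active means 50% or more with normal probe brightness, or confirmed in later tests; about a fifth of its hits are not listed in these tables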;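 further: calls also rest on retests at 20 µM and on dose response follow-up; controls were probe without protein and protein plus probe with vehicle; some compounds called inactive have numbers as strong as hits; many hits fall short of the cut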
# Target sequence (P11940 whole entry, looked up): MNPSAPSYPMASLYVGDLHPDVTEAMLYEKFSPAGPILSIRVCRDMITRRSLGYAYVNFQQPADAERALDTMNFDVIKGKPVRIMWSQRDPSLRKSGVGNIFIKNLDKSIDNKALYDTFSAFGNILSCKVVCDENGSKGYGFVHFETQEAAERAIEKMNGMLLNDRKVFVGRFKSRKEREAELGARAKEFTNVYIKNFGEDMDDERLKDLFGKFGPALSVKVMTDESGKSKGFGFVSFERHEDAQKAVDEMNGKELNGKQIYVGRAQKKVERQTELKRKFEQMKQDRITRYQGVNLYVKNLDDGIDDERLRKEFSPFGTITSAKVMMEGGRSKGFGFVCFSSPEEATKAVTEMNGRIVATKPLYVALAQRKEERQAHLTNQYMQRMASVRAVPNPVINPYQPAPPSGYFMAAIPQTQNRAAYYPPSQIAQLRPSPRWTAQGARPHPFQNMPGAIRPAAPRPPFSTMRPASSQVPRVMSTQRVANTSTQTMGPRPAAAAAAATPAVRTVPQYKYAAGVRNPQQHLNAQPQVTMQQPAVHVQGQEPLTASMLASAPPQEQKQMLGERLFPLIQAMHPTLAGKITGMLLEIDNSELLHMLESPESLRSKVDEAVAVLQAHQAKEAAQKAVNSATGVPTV
# MT1-MMP act inh: blockers of MT1-MMP proenzyme processing, primary screen, HT1080 RFP-PRO-GFP cells, GFP/RFP fluorescence. actives 0.061% (n = 360,000). Matrix metalloproteinase-14 (Homo sapiens), P50281. GFP/RFP ratio change, % at 20 µM. GFP/RFP ratio fluorescence, overnight; percent of plate control window, DMSO zero;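 active means GFP/RFP ratio change of at least 30% with cell ATP level not reduced by more than half and red fluorescence within 50% of control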; further: strong numbers were not always called active
#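 Assay system: HT1080 cells carrying an RFP-PRO-GFP reporter | Dosing: Single dose of 20 µM compound, 1% DMSO final | Incubation: Cells overnight before dosing, compound overnight, 37 °C, 5% CO2 | Evaluation: GFP/RFP fluorescence ratio | Control set: DMSO and RFP-L50D-GFP cell wells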
# Rce1 inhib: yeast Rce1p protease inhibitors, primary screen, biochemical, fluorescence, cell-free homogeneous. CAAX prenyl protease 2 (Saccharomyces cerevisiae (strain ATCC 204508 / S288c)), Q03530. yeast membranes, quenched prenylated peptide cleavage fluorescence. calls only. actives 0.27% (n = 290,000);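 active means fall in fluorescence gain of 50% or more versus controls, with final raw signal at or below 3038400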;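 further: plate controls were neutral control wells for no effect and wells lacking membranes for full effect; tested at 10 µM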
# Env fusion inh: inhibitors of HIV-1 Env-driven cell-cell fusion, primary screen, HeLa-JRFL effector, CEM21 target cells, luciferase; inhibition, % at 12.3 µM; actives 1.1% (n = 360,000);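 active means mean replicate inhibition score of at least 50 and every replicate individually at or above 50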;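 further: 0% = plate neutral controls and 100% = maraviroc near 300 nM; one replicate is shown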
# eIF4H inh: human eIF4H binding inhibitors, primary screen, translation initiation inhibitor project, biochemical, uHTS, fluorescence polarization; Eukaryotic translation initiation factor 4H (Homo sapiens), Q15056; inhibition, % at 35 µM; eIF4H fluorescence polarization binding assay; actives 0.94% (n = 290,000);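 active means 50% or more with normal probe brightness, or confirmed in later tests; about a fifth of its hits are not listed in these tables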;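 further: calls also rest on retests at 20 µM and on dose response follow-up; 0% = protein and probe with vehicle and 100% = probe without protein; strong numbers were not always called active; many hits fall short of the cut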
# MT1-MMP act inh RFP: also measured in MT1-MMP act inh; calls as there; RFP signal change, %; measured here: RFP expression control read;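 0 = vehicle wells; hits needed this value within 50% of zero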
# Starred values were filed as active, the others as inactive; i = inactive; nt = not tested or not shown.
# The first 14 compounds, to show the layout:
SMILES,Yeast UUG start,CSC inhib,PABP FP inh,MT1-MMP act inh,MT1-MMP act inh RFP,Rce1 inhib,Env fusion inh,eIF4H inh
CCCN1C2CCCC1CC(NC(=O)c1cc(OC)c(OC)c(OC)c1)C2 (configuration not stated),nt,-9,-5,-3,0,i,10,1
CSc1c(C#N)c(N)c(C#N)c2c1COC(C)(C)C2,nt,5,-5,-2,0,i,nt,-4
Cc1nnc(SCC(=O)Nc2ccc(-c3nc4ccccc4s3)cc2)s1,nt,9,-4,0,-1,i,-67,-6
Cc1ccc(C(C)C)c(OCC(=O)NN2C(=O)c3ccccc3C2=O)c1,-18,-13,8,2,-4,i,12,-1
Cc1ccc(N(C(=O)Cn2nnc3ccccc32)C(C(=O)NC2CCCCC2)c2cn(C)nc2C)cc1 (configuration not stated),-15,15,-22,0,4,nt,nt,2
Cc1cn([C@H]2C[C@H](O)[C@@H](CCC(=O)NCC3CCCO3)O2)c(=O)[nH]c1=O (some centres not stated),-14,nt,nt,4,4,nt,2,nt
O=C(NC(=S)Nc1ccccc1N1CCOCC1)c1ccc(-c2cc(Cl)ccc2Cl)o1,nt,4,-4,5,2,i,-5,1
COc1cc(/C=N/N(C)S(=O)(=O)c2ccc(C)cc2)cc([N+](=O)[O-])c1O,-20,5,-9,8,2,i,2,-13
COc1ccc(C(=O)CC(=O)C(=O)Nc2ccccc2)cc1,-1,3,3,0,2,i,1,-4
NC12NC(=O)C3(O)C4C5CC(C6C5C3C61)C42 (configuration not stated),nt,-9,2,5,3,i,0,-9
COc1cccc(-c2ccc3ncnc(N(C)Cc4ccco4)c3c2)c1,-19,4,nt,9,-4,nt,29,nt
Cc1ccc2[nH]c(C)c(CCNC(=O)C3CCCCC3C(=O)OCC(F)(F)F)c2c1 (configuration not stated),-3,-5,2,2,-1,i,-12,-4
Cc1ccc(C)c(Cn2ncc3ccccc32)c1,-17,-19,14,-5,-3,i,18,1
CCOC(=O)Oc1ccc2c(=O)c(Oc3cccc(C)c3)coc2c1,-13,1,-7,0,0,i,nt,-1

# Results, from the first entry:
SMILES,Yeast UUG start,CSC inhib,PABP FP inh,MT1-MMP act inh,MT1-MMP act inh RFP,Rce1 inhib,Env fusion inh,eIF4H inh
CCCN1C2CCCC1CC(NC(=O)c1cc(OC)c(OC)c(OC)c1)C2 (configuration not stated),nt,-9,-5,-3,0,i,10,1
CSc1c(C#N)c(N)c(C#N)c2c1COC(C)(C)C2,nt,5,-5,-2,0,i,nt,-4
Cc1nnc(SCC(=O)Nc2ccc(-c3nc4ccccc4s3)cc2)s1,nt,9,-4,0,-1,i,-67,-6
Cc1ccc(C(C)C)c(OCC(=O)NN2C(=O)c3ccccc3C2=O)c1,-18,-13,8,2,-4,i,12,-1
Cc1ccc(N(C(=O)Cn2nnc3ccccc32)C(C(=O)NC2CCCCC2)c2cn(C)nc2C)cc1 (configuration not stated),-15,15,-22,0,4,nt,nt,2
Cc1cn([C@H]2C[C@H](O)[C@@H](CCC(=O)NCC3CCCO3)O2)c(=O)[nH]c1=O (some centres not stated),-14,nt,nt,4,4,nt,2,nt
O=C(NC(=S)Nc1ccccc1N1CCOCC1)c1ccc(-c2cc(Cl)ccc2Cl)o1,nt,4,-4,5,2,i,-5,1
COc1cc(/C=N/N(C)S(=O)(=O)c2ccc(C)cc2)cc([N+](=O)[O-])c1O,-20,5,-9,8,2,i,2,-13
COc1ccc(C(=O)CC(=O)C(=O)Nc2ccccc2)cc1,-1,3,3,0,2,i,1,-4
NC12NC(=O)C3(O)C4C5CC(C6C5C3C61)C42 (configuration not stated),nt,-9,2,5,3,i,0,-9
COc1cccc(-c2ccc3ncnc(N(C)Cc4ccco4)c3c2)c1,-19,4,nt,9,-4,nt,29,nt
Cc1ccc2[nH]c(C)c(CCNC(=O)C3CCCCC3C(=O)OCC(F)(F)F)c2c1 (configuration not stated),-3,-5,2,2,-1,i,-12,-4
Cc1ccc(C)c(Cn2ncc3ccccc32)c1,-17,-19,14,-5,-3,i,18,1
CCOC(=O)Oc1ccc2c(=O)c(Oc3cccc(C)c3)coc2c1,-13,1,-7,0,0,i,nt,-1
Cn1cc(Cl)c(C(=O)N/N=C/c2ccc3c4c(cccc24)CC3)n1,-15,20,3,-1,0,i,nt,-10
CC(=O)N1C[C@H]2CON(C)[C@H]2C[C@H]1c1ccc(-c2cccnc2)cc1,-10,nt,nt,3,5,nt,-6,nt
COc1ccc(CCNC(=O)CS(=O)(=O)c2cn(CC(=O)N(C(C)C)C(C)C)c3ccccc23)cc1OC,24,-1,-1,1,4,i,27,-7
CC(=O)Nc1cccc(C(=O)/C=C/c2ccc[nH]2)c1,nt,2,3,-1,4,i,-37,6
CCC(C)NC(=O)CNS(=O)(=O)c1ccc(C)cc1 (configuration not stated),9,2,-12,1,3,i,nt,-3
COCCn1c(C)cc(C2=NNC(=Nc3ccc(OC)cc3)SC2)c1C,-23,-3,11,1,2,i,nt,4
O=C(C1CC1)N1CCN(c2ccc(O)cc2)CC1,-17,6,4,-11,-3,nt,-10,-4
O=C(c1ccco1)N1CCN(C(=O)c2ccc(Br)o2)CC1,12,nt,nt,4,3,nt,-10,nt
Cc1ccccc1NC(=O)c1ccc(CN2CCC(Cc3ccccc3)CC2)cc1,16,-6,-5,1,-17,i,nt,-4
COC(=O)C(C)NC(=O)C12CC3CC(CC(C3)C1)C2 (configuration not stated),-17,-4,3,-2,7,i,nt,-6
O=C(c1cc(Cl)cc(Cl)c1)N1CCOCC1,-7,-12,-1,7,4,i,-3,-4
COc1ccc(NC(=O)CN(C)C(=O)CCCc2c[nH]c3ccccc23)cc1,nt,-1,nt,-2,0,i,14,nt
COCCCNC(=O)COc1ccc(S(=O)(=O)Nc2ccccc2)cc1,-5,-7,8,-4,0,i,nt,7
CCOc1ccc(N2C(=O)S/C(=C\c3ccc(O)c(OCC)c3)C2=O)cc1,nt,30,-6,-10,-4,i,-6,2
O=S(=O)(Nc1ccccc1)c1ccc(S(=O)(=O)N2CCCC2)cc1,-6,-19,nt,-3,-8,nt,-4,nt
COc1cccc(C(=O)Nc2ccc(NC(=O)c3ccco3)c(Cl)c2)c1,nt,9,-6,6,3,i,-22,6
COC(=O)c1cc(NC(=O)c2ccc(OC)cc2)c(=O)oc1C,-5,-3,6,-3,2,i,-8,-1
Cc1[nH]n(-c2ccccc2)c(=O)c1C=NCc1ccco1,nt,-1,7,nt,nt,i,nt,0
CCCCC(=O)NC(Nc1cc(C)ccn1)(C(=O)OCC)C(F)(F)F (configuration not stated),nt,-9,-15,5,2,i,nt,-15
CC1=NN(C(=O)c2ccccc2F)C(O)(c2ccc(Cl)cc2)C1 (configuration not stated),-13,4,5,1,2,i,16,0
COc1cc(C(=O)N2CCN(CCCc3ccccc3)CC2)cc(OC)c1OC,-18,11,nt,4,1,i,16,nt
O=C(C1=C[C@@H](c2coc3ccccc3c2=O)C[C@@H](OCCCCO)O1)N1CCN(Cc2ccc3c(c2)OCO3)CC1,-16,3,-8,4,2,i,6,1
COC(=O)C1CCN(S(=O)(=O)c2cn(C)c(=O)n(C)c2=O)CC1,-13,-1,-3,-3,-2,i,2,-12
O=C(NCC1CCCO1)C1CCN(C(=O)c2ccc(Br)cc2)CC1 (configuration not stated),-11,0,2,4,0,i,nt,-10
CCc1ccc(NC(=O)C2CCCN(S(=O)(=O)c3ccc4c(c3)CCCN4C(C)=O)C2)cc1 (configuration not stated),13,-11,-11,-6,-15,i,8,-9
O=C(CSc1nnc(-c2cccnc2)n1C1CCCCC1)NC1CCCCC1,-27,-4,7,-4,4,i,-14,-4
Cc1ccc(NC(=O)CSc2nccn2Cc2ccco2)c(C)c1,-45,-2,8,-3,-3,i,-206,-2
CCOC(=O)N1CCC(N2C(=O)c3ccccc3C2Nc2ccc(S(=O)(=O)N3CCCCC3)cc2)CC1 (configuration not stated),nt,-11,4,nt,nt,i,nt,4
COc1cc(/C=N/NC(=O)c2ccc3nc[nH]c3c2)cc(OC)c1OC,nt,-10,13,nt,nt,nt,nt,-6
CCOc1ncccc1C(=O)N1CCN(c2cccc(C)c2C)CC1,nt,nt,1,8,-5,i,-29,-4
CCOC(=O)C1CCN(CC(=O)N2C(C)CCCC2C)CC1 (configuration not stated),-4,5,14,1,2,i,-9,-4
CC(=O)Nc1cccc(-c2ccnc3c2CC(C)(C(=O)Nc2cccnc2)O3)c1 (configuration not stated),-3,nt,nt,-2,3,nt,-4,nt
O=C(O)CN=C(NS(=O)(=O)c1ccccc1)c1ccccc1,nt,-25,3,2,3,i,nt,-1
Cc1cc(C(=O)Nc2cccc3ccccc23)n(-c2ccccc2)n1,-11,-13,5,2,2,i,3,3
O=C(COc1ccc2ccc(=O)oc2c1)Nc1cccc(S(=O)(=O)N2CCCCC2)c1,-7,10,nt,-1,-17,nt,nt,nt
COc1ccc(C)cc1S(=O)(=O)N1CCN(Cc2ccccc2)CC1,0,-18,8,1,2,nt,-1,9
Cc1cnc(C(=O)OCC(=O)NCc2ccc3c(c2)OCO3)cn1,nt,-10,-3,0,2,i,9,-20
Cc1cc(=O)oc2cc(NC(=O)C(C)Oc3cccc(Cl)c3)ccc12 (configuration not stated),-20,-1,nt,0,-3,i,nt,nt
CCNC(=S)N/N=C/c1ccc(OCCOc2ccccc2C)cc1,-11,-7,-8,1,5,i,-379,-2
COC(=O)[C@@H](NC(=O)NCc1ccccc1Cl)C(C)C,-20,-8,-2,3,-1,i,nt,-13
COc1nc(-c2ccccc2)ccc1-c1noc(-c2cccs2)n1,-12,-9,nt,-9,-2,i,-155,nt
Cc1cc(N2C(=O)c3ccc(C(=O)Nc4ccc(CC(=O)O)cc4)cc3C2=O)no1,-5,-5,8,1,3,i,6,0
CC1CC(O)(Cc2ccccc2)C(C)CN1C (configuration not stated),-8,-15,-7,2,0,i,nt,-3
Cc1cc(C)c2nc(N3CCC(C(=O)NCCN4CCOCC4)CC3)sc2c1,-13,5,-1,nt,nt,i,-3,2
O=C(COC(=O)c1cnc(Cl)c(Cl)c1)NCc1ccc2c(c1)OCO2,-8,-4,-12,2,4,i,11,-6
O=C(O)C1=CC[C@@H](c2ccc(Cl)cc2)N(S(=O)(=O)c2ccc(Cl)cc2)[C@H]1c1cccc(Cl)c1,-13,13,nt,4,4,nt,-16,nt
CCn1cnc2cc(NCc3ccc(Br)cc3)ccc21,nt,-1,0,nt,nt,i,-41,-4
C[C@@H](NC(=O)c1nc[nH]c1C(=O)N1CCN(C(=O)OC(C)(C)C)CC1)c1ccccc1,-6,12,nt,5,5,nt,-7,nt
COCCN(C(=O)c1ccccc1OC1CCN(S(C)(=O)=O)CC1)C(C)C,nt,nt,-5,0,-2,i,11,-9

# Not a hit list, and some 2.9% of all compounds hit somewhere here.
